Source: PubChem BioAssay
PME-1 primary – PME-1 (human) inhibition; Q9Y570; recombinant PME-1, FP-Rh probe fluorescence polarization; inhibition, % at 5.9 µM; 320,000 tested, 0.53% active; AID 2130;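 active = inhibition above the campaign mean of all compounds plus 3 SD, cut at about 26% in these data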;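 also: competitive labeling of PME-1 active site by serine hydrolase directed probe; 0% = PME-1 with DMSO and 100% = wells lacking PME-1 enzyme; inhibitors block probe labeling so polarization falls and inhibition rises; many of its hits are not listed in these tables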
PAFAH1B2 FP inh – PAFAH1B2 (human) inhibition; P68402; 340,000 tested, 1.2% active; recombinant PAFAH1B2, FP-rhodamine activity probe, fluorescence polarization; inhibition, % at 3.39 µM;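 active = inhibition above the mean of all tested compounds plus 3 SD, cut at about 24% in these data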;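 also: 0% = enzyme with DMSO and 100% = wells lacking PAFAH1B2; many of its hits are not listed in these tables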
Target sequence (P68402 whole entry, looked up): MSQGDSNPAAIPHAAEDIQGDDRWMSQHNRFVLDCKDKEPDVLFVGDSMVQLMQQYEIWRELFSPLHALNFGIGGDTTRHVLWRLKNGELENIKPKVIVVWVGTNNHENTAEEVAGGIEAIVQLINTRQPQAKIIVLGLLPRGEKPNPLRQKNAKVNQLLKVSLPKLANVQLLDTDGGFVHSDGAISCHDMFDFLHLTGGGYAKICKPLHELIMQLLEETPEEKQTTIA
LYPLA1 counter – counter-screen for PME1 inhibitors: inhibitors of human LYPLA1; O75608; AID 2174; recombinant LYPLA1, FP-Rh probe fluorescence polarization; inhibition, % at 5.9 µM; 320,000 tested, 0.16% active;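 active = inhibition above the mean of all tested compounds plus 3 SD, set per campaign, cut at about 14% in these data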;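 also: inhibitors block serine hydrolase probe labeling of LYPLA1 so polarization falls; 0% = enzyme with DMSO and 100% = wells lacking LYPLA1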
LYPLA2 inh – LYPLA2 (human) inhibition in PME1 counter-screen; recombinant LYPLA2, FP-Rh probe fluorescence polarization; inhibition, % at 5.9 µM; 320,000 tested, 0.38% active; AID 2177;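 active = inhibition above the screen-wide mean plus 3 SD, limit set per campaign, cut at about 26% in these data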;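 also: 0% = LYPLA2 with DMSO and 100% = wells lacking LYPLA2 enzyme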
PAD4 inh – PAD4 (human) enzyme inhibition. Q9UM07. recombinant PAD4, RCA probe fluorescence polarization. inhibition, % at 6.36 µM. 330,000 tested, 0.41% active;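 active = percent inhibition above a cutoff equal to the mean of all tested compounds plus 3 SD, cut at about 15% in these data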;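 also: 0% = PAD4 with RCA probe and DMSO and 100% = probe without PAD4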
Target sequence (Q9UM07 whole entry, looked up): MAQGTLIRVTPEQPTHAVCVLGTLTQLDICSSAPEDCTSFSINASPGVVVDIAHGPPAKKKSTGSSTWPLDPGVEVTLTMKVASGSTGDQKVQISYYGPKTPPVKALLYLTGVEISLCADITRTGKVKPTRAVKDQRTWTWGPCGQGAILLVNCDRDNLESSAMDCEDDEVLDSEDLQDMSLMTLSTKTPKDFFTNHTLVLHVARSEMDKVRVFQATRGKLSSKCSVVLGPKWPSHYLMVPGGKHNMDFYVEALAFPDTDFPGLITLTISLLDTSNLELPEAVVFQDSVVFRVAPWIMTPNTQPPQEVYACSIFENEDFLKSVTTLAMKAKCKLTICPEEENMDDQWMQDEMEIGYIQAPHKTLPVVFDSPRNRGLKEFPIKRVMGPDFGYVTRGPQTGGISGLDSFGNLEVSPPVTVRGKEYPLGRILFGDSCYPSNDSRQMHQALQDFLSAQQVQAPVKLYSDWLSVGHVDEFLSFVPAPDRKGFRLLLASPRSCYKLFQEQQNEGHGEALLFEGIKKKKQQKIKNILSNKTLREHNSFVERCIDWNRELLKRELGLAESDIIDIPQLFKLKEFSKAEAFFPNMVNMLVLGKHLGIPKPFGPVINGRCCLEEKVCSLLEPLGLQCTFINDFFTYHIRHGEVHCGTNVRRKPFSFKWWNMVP
PAFAH2 FP inh – inhibitors of human PAFAH2; 340,000 tested, 0.99% active; inhibition, % at 3.39 µM; recombinant PAFAH2, FP-rhodamine activity probe, fluorescence polarization;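 active = inhibition above the mean over all tested compounds plus 3 SD, cut at about 30% in these data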;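 also: inhibitors block probe labeling of enzyme so polarization drops; 0% = enzyme with DMSO and 100% = wells lacking PAFAH2 protein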
PAFAH1B3 inh – blocks human PAF acetylhydrolase 1B catalytic subunit 3; inhibition, % at 3.39 µM; 340,000 tested, 0.28% active; recombinant PAFAH1B3, FP-rhodamine probe, fluorescence polarization; AID 492972; Q15102;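 active = inhibition above the screen-wide average of all tested compounds plus 3 SD, cut at about 25% in these data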;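 also: 0% = enzyme with DMSO only and 100% = wells lacking PAFAH1B3 protein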
GSTO1 counter – blocks human GSTO1 in RBBP9 counter-screen | recombinant GSTO1, activity-based probe fluorescence polarization | inhibition, % at 5.96 µM | 300,000 tested, 1.1% active | AID 1974;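 active = inhibition above the campaign mean inhibition plus 3 SD, cut at about 35% in these data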;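 also: 0% = GSTO1-1 with DMSO and 100% = wells lacking GSTO1-1 enzyme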
* hit, by the source's call; . = not tested or not shown. A portion of the library; count on the stated rates, not on these rows.

SMILES	PME-1 primary	PAFAH1B2 FP inh	LYPLA1 counter	LYPLA2 inh	PAD4 inh	PAFAH2 FP inh	PAFAH1B3 inh	GSTO1 counter
O=C(NCCc1ccccc1)c1ccc(CS(=O)(=O)Cc2ccc(F)cc2)o1	5	14	1	5	-2	12	5	-2
Cc1ccc(NS(=O)(=O)c2ccc(NC(=O)C3CC3)cc2)c(C)c1	4	4	-4	-4	1	-5	3	6
O=C(Nc1ccc(S(=O)(=O)O)cc1)c1ccc2c(c1)S(=O)(=O)c1ccccc1C2=O	6	-3	2	8	4	21	-2	-6
C(=N\Nc1nc(Nc2ccccc2)nc(Nc2ccccc2)n1)/c1cccnc1	-34	-4	-23	-51	-8	-19	-5	-6
CC(C)Oc1cccc(C(=O)NC(=S)N2CCN(c3ccc(C(F)(F)F)cc3[N+](=O)[O-])CC2)c1	0	2	-8	8	0	-4	-1	-11
Cn1c(N)c(-c2ccccc2)c2ccc([N+](=O)[O-])cc2c1=O	-5	2	-1	22	-8	-6	3	11
O=C(O)c1cccc(Nc2nc3ccccc3nc2NS(=O)(=O)c2ccccc2)c1	.	6	.	.	0	-2	19	.
CCOc1ccc(NS(=O)(=O)c2ccc(NS(=O)(=O)c3cccs3)cc2)cc1	-10	-3	1	6	0	0	-7	1
O=[N+]([O-])c1cc(S(=O)(=O)Nc2ccccc2)ccc1NCc1cccnc1	14	1	3	5	6	12	-1	6
C=CCNc1nc(C(=O)OCC(=O)Nc2cc(S(C)(=O)=O)ccc2Cl)cs1	0	1	1	2	-1	16	2	10
COc1ccc2c(C#CCCO)c(-c3ccc(S(C)(=O)=O)cc3)sc2c1	.	-2	.	.	4	-2	-7	.
N=C1C(c2nc3ccccc3s2)=C(O)CN1C1CCC(O)CC1 (stereo not given)	2	.	0	0	0	.	.	12
CCOc1ccc(-n2c(SCC(=O)NCc3ccco3)nc3ccccc3c2=O)cc1	0	4	1	1	3	7	-2	1
Cc1ccc(NS(=O)(=O)c2ccc(-n3cccn3)cc2)c(C)c1	7	-5	-2	-4	-4	1	1	-11
CCCCCCSc1nc(O)c(C2OC(=O)c3c2ccc(OC)c3OC)c(=O)n1-c1ccccc1 (stereo not given)	4	24	2	4	-2	37*	6	9
COc1cc(F)cc(-c2ccc3c(c2)c(-c2cccs2)c(-c2cc(OC)cc(OC)c2)n3C)c1	-18	-1	-4	-4	-5	-2	7	.
O=C(c1cc2nc(-c3ccccc3)cc(-c3ccccc3)n2n1)N1CCN(C(=O)c2ccco2)CC1	3	0	-3	4	-3	2	0	-1
Cc1c(C(=O)NC(C)c2ccccc2)c(-c2ccccc2)nn1-c1ccccc1 (stereo not given)	-1	-5	-5	-9	1	12	-4	0
CCOc1ccc(NS(=O)(=O)c2ccc(C(=O)NCC(C)(C)N3CCOCC3)cc2)cc1	7	4	2	-1	2	6	4	15
O=C(c1ccco1)N1CCN(C(=O)c2ccc(COc3ccc4c(c3)CCC4)o2)CC1	5	4	3	5	5	11	1	0
Cc1ccccc1-n1c(SCc2cc(=O)n3ccccc3n2)nc2[nH]ncc2c1=O	4	4	1	7	3	0	0	1
CCc1ccc(NS(=O)(=O)c2ccc3oc(=O)ccc3c2)cc1	-4	2	-4	6	2	-7	15	25
O=C(O)C1CCN(C(=O)COc2ccc(Br)cc2)CC1	-2	-3	-3	-2	-2	-1	11	5
CCOc1ccc(NS(=O)(=O)c2ccc(OCC(=O)NCc3ccncc3)cc2)cc1	1	4	-2	-2	-1	-1	5	35
O=C(N/N=C/c1ccccc1C(=O)O)c1cc(-c2ccc3c4c(cccc24)CC3)n[nH]1	-32	-2	-32	-35	-1	-6	2	-26
O=C(COc1ccccc1)NC(=S)Nc1ccc2c3c(cccc13)CC2	3	2	1	-3	-3	-2	-2	-4
O=c1cc(-c2ccccc2)nc2nc(SCc3ccccc3)[nH]n12	-1	5	-2	-6	-4	41*	6	-28
CCOC(=O)c1cc(C(C)=O)c(=O)[nH]c1C	-1	-1	-2	2	-7	-1	-2	3
Cc1ccc(S(=O)(=O)Nc2nc(C)c(NC(=O)OCCCl)s2)cc1	1	7	-2	1	-3	-7	13	2
O=C(COc1ccc(Br)cc1)N1CCN(c2ncccn2)CC1	-2	2	-5	0	4	9	6	.
Cc1nn(-c2ccccc2)c(C)c1NC(=O)COC(=O)c1ccc(Cl)c(S(N)(=O)=O)c1	-5	1	7	-3	-1	15	6	11
Cc1nn(-c2ccccc2)c(C)c1NC(=O)COc1ccc([N+](=O)[O-])cc1	2	1	1	-3	1	1	-6	14
COc1ccc(NC(C)=O)cc1S(=O)(=O)Nc1ccc(OCc2ccccc2)cc1	-2	9	7	6	-3	3	-2	13
COC(=O)C1CCN(C(=O)/C=C/c2ccc3c(c2)OCO3)CC1	-4	7	-2	-1	-2	-1	0	1
NC(=O)C1CCN(c2ncnc3c2c(-c2ccccc2)cn3-c2ccccc2)CC1	5	1	17*	18	7	8	2	-1
CCOC(=O)c1cnc(SCC)[nH]c1=O	0	-1	-3	4	-3	-3	0	2
CCOc1cc(/C=C2\N=C(C)OC2=O)cc(Br)c1OCCc1ccccc1	-3	3	-1	-2	-3	8	-1	11
CCOc1ccc(NS(=O)(=O)c2ccc(C(=O)NCC(c3ccco3)N3CCCC3)cc2)cc1 (stereo not given)	4	4	1	-3	-7	-12	-4	.
CCCN(CC(=O)Nc1ccccc1OC)C(=O)c1ccc(S(=O)(=O)Nc2ccccc2)cc1	-3	8	-1	-17	-17	7	3	4
N=C1C(c2nc3ccccc3s2)=C(O)CN1Cc1ccco1	8	-3	-3	-5	0	16	3	8
O=C(COC(=O)CC1c2ccccc2CCN1S(=O)(=O)c1ccccc1)Nc1ccccc1 (stereo not given)	12	6	-6	-5	-1	45*	1	1
O=C(NNC(=S)NC1CCCCC1)c1sc2ccccc2c1Cl	17	12	2	4	-1	29	7	11
O=C(/C=C/c1ccc(Cl)cc1)NCc1ccco1	-3	1	-2	1	3	3	-1	3
Cn1c(-c2ccsc2)c(-c2cccs2)c2cc(-c3cccc4[nH]ccc34)ccc21	2	-4	0	4	-4	-9	-5	.
Cc1ccc(C(=O)Nc2ccccc2C(=O)O)cc1S(=O)(=O)Nc1ccccc1	-17	-4	-6	-8	-3	-17	-6	-45
CCCCN(CCCC)c1ccc(C(=O)c2ccccc2C(=O)O)c(O)c1	5	11	3	2	6	6	8	10
Cc1ccc(NS(=O)(=O)c2ccc(C)c(C(=O)N3CCOCC3)c2)cc1	-1	1	5	9	3	7	-5	4
COCCCNC(=O)c1ccc(-n2nc(C(F)(F)F)cc2-c2cccs2)cc1	-3	4	1	-5	-2	12	2	7
COc1ccc(S(=O)(=O)Nc2ccc(F)c(F)c2)cc1C(=O)N1CCOCC1	-3	3	-3	-7	-8	1	3	-1
O=C(CSc1ccc([N+](=O)[O-])cc1)Nc1cccc(S(=O)(=O)Nc2ccccc2F)c1	15	47*	-2	-12	-4	10	-4	6

The results go on.
SMILES	PME-1 primary	PAFAH1B2 FP inh	LYPLA1 counter	LYPLA2 inh	PAD4 inh	PAFAH2 FP inh	PAFAH1B3 inh	GSTO1 counter
CC(=O)Nc1ccc(S(=O)(=O)Nc2ccc(Nc3ccccc3)cc2)cc1	7	7	-1	16	1	5	6	12
COc1ccccc1CNc1ccc2nnc(CCNC(=O)c3ccc(C)cc3)n2n1	7	5	-3	-8	-5	5	6	-6
Cc1cc(-n2c(SCc3ccccc3F)nc3n[nH]c(C)c3c2=N)ccc1Cl	-11	-6	-12	-12	-4	-9	-10	-25
COc1cccc(N2CC(O)=C(c3nc4ccccc4s3)C2=N)c1	4	3	-1	2	-7	23	5	3
O=C(NCCCn1ccnc1)c1cccc(S(=O)(=O)Nc2ccc(Br)cc2)c1	2	2	-1	1	1	11	8	4
O=C(COc1ccc(Cl)cc1)N1CCN(C(=O)c2cccs2)CC1	0	2	-2	9	-1	-7	3	12
CN(C)c1ccc(C(=O)OCC(=O)NC2CCCCC2)cc1	-2	-2	-1	-3	-4	97*	-1	-3
Cc1ccccc1NS(=O)(=O)c1ccc(OCC(=O)NCc2ccco2)cc1	8	2	-2	-6	-6	-1	-6	-4
Cc1ccc(NC(=O)COC(=O)Cc2ccsc2)c(C)c1	4	3	3	3	-4	3	-4	-4
FC(F)(F)c1cc(-c2ccccc2)nc(NCc2cccnc2)n1	2	-1	-5	6	6	-11	10	4

6 neighbouring compounds already listed, for reference:
SMILES	PME-1 primary	PAFAH1B2 FP inh	LYPLA1 counter	LYPLA2 inh	PAD4 inh	PAFAH2 FP inh	PAFAH1B3 inh	GSTO1 counter
CC(=O)Nc1ccc(S(=O)(=O)Nc2ccc(Nc3ccccc3)cc2)cc1	7	7	-1	16	1	5	6	12
COc1ccccc1CNc1ccc2nnc(CCNC(=O)c3ccc(C)cc3)n2n1	7	5	-3	-8	-5	5	6	-6
Cc1cc(-n2c(SCc3ccccc3F)nc3n[nH]c(C)c3c2=N)ccc1Cl	-11	-6	-12	-12	-4	-9	-10	-25
COc1cccc(N2CC(O)=C(c3nc4ccccc4s3)C2=N)c1	4	3	-1	2	-7	23	5	3
O=C(NCCCn1ccnc1)c1cccc(S(=O)(=O)Nc2ccc(Br)cc2)c1	2	2	-1	1	1	11	8	4
O=C(COc1ccc(Cl)cc1)N1CCN(C(=O)c2cccs2)CC1	0	2	-2	9	-1	-7	3	12

The listing continues:
SMILES	PME-1 primary	PAFAH1B2 FP inh	LYPLA1 counter	LYPLA2 inh	PAD4 inh	PAFAH2 FP inh	PAFAH1B3 inh	GSTO1 counter
OC(CN1CCN(c2ccccn2)CC1)Cn1c2ccc(Cl)cc2c2cc(Cl)ccc21 (stereo not given)	-16	-7	-14	-21	-1	-15	-8	-5
CC(=O)N1CCN(S(=O)(=O)c2cccc(C(=O)NNC(=O)COc3ccc(Cl)cc3C)c2)CC1	-4	5	-2	7	2	8	-2	5
CCOC(=O)c1ccccc1NC(=O)COC(=O)CCNS(=O)(=O)c1ccccc1	10	-8	0	6	-5	2	-1	-7
COc1ccccc1/C=C/C(=O)OCC(=O)NC1CCCCCC1	5	2	1	-2	2	93*	3	.
O=C(NCC(c1ccco1)N1CCCC1)c1cccc(S(=O)(=O)Nc2ccc(F)cc2)c1 (stereo not given)	-7	-3	-3	-7	-2	3	-5	.
Cc1ccc(NS(=O)(=O)c2ccc(C(=O)NCC(c3ccco3)N(C)C)cc2)cc1 (stereo not given)	6	6	-5	4	-4	0	8	7
Cc1cccc(-n2cc(-c3ccccc3)c3c(N4CCOCC4)ncnc32)c1	2	4	-1	-2	-3	2	4	0
O=C(COC(=O)Cc1ccsc1)Nc1cccc(Cl)c1	3	17	-5	-1	3	25	10	.
COc1cc(C(C)=O)ccc1OCC(=O)Nc1ccccc1N1CCCCC1	6	4	-3	9	0	8	10	3
Cc1ccc(NS(=O)(=O)c2cccc(C(=O)NCC(c3ccco3)N3CCCC3)c2)cc1 (stereo not given)	-1	1	1	1	-4	0	6	.
O=C(NCc1ccc(F)cc1)c1ccc(CS(=O)(=O)Cc2ccc(F)cc2)o1	-3	18	0	-7	-2	1	-3	2
COc1ccc(OC)c(-n2c(SCC(=O)Nc3cccc(S(N)(=O)=O)c3)nc3ccccc3c2=O)c1	-5	2	-2	0	-5	-6	5	2
CCc1ccc(NS(=O)(=O)c2ccc(C)c(C(=O)N3CCOCC3)c2)cc1	2	3	-5	-6	-2	0	7	4
COc1cccc(NC(=O)CN(C)C(=O)c2cccc(S(=O)(=O)Nc3ccc(C)cc3)c2)c1	-5	7	-4	-9	-5	14	12	.
